Screening data from PubChem.
Sa growth inh: blocks Staphylococcus aureus growth; S. aureus RN4220 growth, OD600, 20 h, 42 °C; hits give low values; relative growth, % (no concentration beside the values); 0.53% of 170,000 active;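 active = growth at 42 °C up to 50% and 20 or more points under that at 30 °C, or under 10% at both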;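 also: 300 nL library stock went into each well; scaled to the means of positive and negative controls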
HCMV UL50-53 inh: inhibitors of HCMV UL50-UL53 nuclear egress complex interaction; HTRF UL50-UL53 interaction, normalized percent inhibition; inhibition, % (concentration not given with the values); 0.15% of 190,000 active; AID 1918969;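 active = both replicates at 50% or more, plus weaker picks with an unusually low signal ratio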;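 also: stock transfer was 100 nL into about 20 µL; 0% = negative control wells and 100% = wells with untagged competitor protein; inactives centre near -12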
GIV Gai3 FP: inhibitors of GIV GBA-motif binding to rat Galpha-i3. Galpha-i3/FITC-GIV peptide fluorescence polarization, 90 min; hits give low values; scaled: aluminum fluoride 0%, vehicle 100%. percent of control (FP), % (test concentration not listed). 0.42% of 210,000 active. AID 1224905;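 active = replicate mean at 85% of control or lower, very high polarization wells dropped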;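 also: wells of about 15 µL received 100 nL stock; the first replicate is given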
Target sequence (P08753 whole entry, looked up): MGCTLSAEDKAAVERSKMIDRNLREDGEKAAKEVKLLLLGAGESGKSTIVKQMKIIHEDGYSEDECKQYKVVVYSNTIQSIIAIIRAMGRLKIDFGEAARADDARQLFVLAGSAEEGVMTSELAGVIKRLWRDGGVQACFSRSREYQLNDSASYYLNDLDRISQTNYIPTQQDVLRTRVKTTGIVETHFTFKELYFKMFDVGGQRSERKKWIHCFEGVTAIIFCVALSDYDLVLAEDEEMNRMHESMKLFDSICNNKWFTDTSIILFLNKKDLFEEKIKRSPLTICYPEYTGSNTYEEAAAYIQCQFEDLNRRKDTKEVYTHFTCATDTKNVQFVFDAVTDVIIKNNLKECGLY
Sa growth inh second temp: further read-out of Sa growth inh, marked with its call; relative growth, %; measured here: growth at 30 °C;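 optical density after 20 h as mean of two plates; 100% = untreated growth and lower means inhibition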
The depositor's hits bear a star; . = not tested or not shown; & = joins results of further samples.

Fields – GIV Gai3 FP, HCMV UL50-53 inh, Sa growth inh, Sa growth inh second temp
1) COc1ccc(Br)cc1CSC(=N)N
    103, -3, 143, 87
2) COc1ccc(/C=C/C(=O)OC2CCCCC2CN(C)C)cc1 (stereo not given)
    ., -55, 111, 85
3) N#Cc1cnn(-c2ccccc2)c1/N=C/N1CCCC1
    106, -12, 103, 94
4) Cc1nc(N)sc1N=Nc1ccc(F)cc1
    ., -55, 140, 74
5) c1ccc(CSc2nccc(-c3cccnc3)n2)cc1
    102, 1, 91, 90
6) CCOc1ccc(CCNC(=O)CS(=O)(=O)Cc2nc(-c3cccc(Cl)c3)oc2C)cc1
    105, -4, 97, 88
7) COc1ccc(OCC(O)CNC(=O)c2sccc2Cl)cc1 (stereo not given)
    102, -31, 81, 81
8) CCOc1ccccc1C1C(C(=O)N2CCOCC2)=C(C)Nc2nc3ccccc3n21 (stereo not given)
    107, ., 100, 88
9) CCC(CC)C(=O)Nc1cc(C)nn1-c1ncnc2c1cnn2-c1ccc(F)cc1
    104, 1, ., .
10) O=C(CS(=O)CC(=O)Nc1ccc2c(c1)OCCO2)Nc1ccc(Cl)cc1 (stereo not given)
    103, 1, 100, 113
11) CC(NC(=O)Cn1ncc2ccccc21)c1ccccc1 (stereo not given)
    102, ., 91, 94
12) CCCCn1c(=S)[nH]c2sc3c(c2c1=O)CCCC3
    94, ., 60, 30
13) Cc1ccc(NC(=O)CC(=O)Nc2ccc(C)cc2)cc1
    ., -1, 79, 91
14) Cc1noc2c1C(c1ccc(Cl)cc1)C1=C(CC(c3ccccc3O)CC1=O)N2 (stereo not given)
    97, 10, ., .
15) CCOc1ccc(CN2C(=O)c3ccccc3Sc3ccc(C(=O)NC4CCC(C)CC4)cc32)cc1 (stereo not given)
    103, -12, 96, 93
16) O=C(COc1ccccc1Cl)N(Cc1ccco1)Cc1ccco1
    103, -30, 91, 75
17) Cc1cc(C(=O)NNc2c(Cl)cccc2Cl)no1
    102, 0, 97, 96
18) COc1ccc(/C=C2\SC(=O)N(c3ccc(C)cc3)C2=O)cc1
    101, ., 106, 98
19) CC(C)(C)NC(=O)c1cnn2c(C(F)F)cc(-c3ccccc3)nc12
    107, ., 117, 89
20) COc1ccccc1CNCc1ccccc1OC
    96, -12, 99, 82
21) O=C1CCC(C(=O)Nc2ccccc2N2CCOCC2)=NN1
    102, -36, 94, 86
22) O=C1Nc2c(ccc(Cl)c2Cl)C(=O)C1(F)c1ccccc1 (stereo not given)
    100, -16, 119, 84
23) Cc1[nH]c2ccc(CNC(=O)Nc3ccc(F)cc3F)cc2c1C
    102, ., 91, 86
24) CS(=O)(=O)N(CC(=O)NCC1CCCO1)Cc1ccc(Cl)c(Cl)c1 (stereo not given)
    107, 9, 99, 77
25) CCOC(=O)c1cc2n(n1)CC(C)(C(=O)NCCC(C)C)N(c1cccc(Cl)c1)C2=O (stereo not given)
    104, -12, ., .
26) O=C(CSc1nc2ccc(Nc3nc(N4CCOCC4)nc(N4CCOCC4)n3)cc2s1)NC1CC1
    108, -25, ., .
27) O=C(CSc1nnc(-c2cccs2)o1)c1ccc[nH]1
    ., -4, 79, 91
28) Cc1ccc(C(=N)N)cc1F
    102, -1, 105, 92
29) Cc1c(C(=O)NC2CCCC2)cccc1-n1nnc2cccnc21
    109, -30, ., .
30) O=C(NCc1ccccc1Cl)C1(c2ccccc2)CCCC1
    ., -10, 100, 80
31) CN(C)c1nc2ccc(OCCN3CCOCC3)cc2s1
    ., -7, 100, 86
32) CCOc1ccccc1Nc1sc(C(=O)c2ccc(Cl)cc2)c(N)c1C#N
    95, ., 92, 78
33) c1ccc(CNc2ccccn2)cc1
    ., 7, 92, 92
34) Cc1oc2cc3oc(=O)ccc3cc2c1C
    108, -3, 107, 89
35) CC(C)(C)NC(=O)N1CCN(c2ncccc2C(F)(F)F)CC1
    103, ., 106, 83
36) O=S(=O)(NCCOc1ccccc1)c1ccc2ccccc2c1
    ., -5, 90, 97
37) Cc1cccc(NC(=O)C2CCCN(S(=O)(=O)c3cccc4nonc34)C2)c1C (stereo not given)
    108, -12, 90, 95
38) CCOc1ccc(-c2cn3c(n2)sc2cc(C(=O)NC4CCCc5ccccc54)ccc23)cc1 (stereo not given)
    109, ., 94, 82
39) Cc1ccc(Nc2ssc(=O)c2Cl)cc1C
    ., 8, 88, 92
40) CC(C)CNC(=O)Nc1ccccc1F
    106, -11, 70, 101
41) COC(=O)c1ccc(NC(=O)CC2C(=O)N(c3cccc(OC)c3)C(=O)N2Cc2cccs2)cc1 (stereo not given)
    102, ., 114, 77
42) N#Cc1c(C(F)(F)F)cc(-c2cccs2)nc1SCC(=O)Nc1cccc(Cl)c1
    102, -35, 102, 90
43) Cc1oc2ncn(CCC(=O)NC3CCS(=O)(=O)C3)c(=O)c2c1C (stereo not given)
    101, -23, ., .
44) COC(=O)c1cc(C)nc(Sc2n[nH]c(-c3cc(Cl)cc(Cl)c3)n2)n1
    106, -34, 92, 89
45) CN(C(=O)c1ccc2c(Cl)c3c(nc2c1)CCCC3)c1ccc(Cl)cc1
    99, ., 105, 94

An excerpt of these results, tab-delimited.
no.	Compound	GIV Gai3 FP	HCMV UL50-53 inh	Sa growth inh	Sa growth inh second temp
26	O=C(CSc1nc2ccc(Nc3nc(N4CCOCC4)nc(N4CCOCC4)n3)cc2s1)NC1CC1	108	-25	.	.
27	O=C(CSc1nnc(-c2cccs2)o1)c1ccc[nH]1	.	-4	79	91
28	Cc1ccc(C(=N)N)cc1F	102	-1	105	92
29	Cc1c(C(=O)NC2CCCC2)cccc1-n1nnc2cccnc21	109	-30	.	.

(listing goes on)
Fields – GIV Gai3 FP, HCMV UL50-53 inh, Sa growth inh, Sa growth inh second temp
46) CN1CCN(CCNC(=O)c2cnn(-c3cccc(Cl)c3)c2C2CCN(C(=O)OC(C)(C)C)CC2)CC1
    101, ., 87, 93
47) Cc1ccc2c(Sc3ccc(Cl)cc3)c(C(=O)NC3CCCC3)[nH]c2c1
    97, ., 88, 83
48) O=C(c1cc(-c2ccccc2)n[nH]1)N1CCCCC1
    100, ., 82, 88
49) CC(=O)N1CCc2cc(Br)cc(S(=O)(=O)N3CCC(C(=O)Nc4cccc(C)c4C)CC3)c21
    103, -7, 98, 82
50) COc1ccccc1NC(=O)Nc1ccc2nc(SCC(=O)Nc3ccccc3C)sc2c1
    104, -9, ., .
51) COc1ccccc1CNCC(=O)Nc1cc(C)on1
    102, 15, 99, 93
52) Cc1ccc(NCc2nnc(SCC(=O)O)n2-c2cccc(Cl)c2)cc1
    98, 13, 92, 117
53) CCCN1C(=O)c2ccc(C(=O)NC3=NCCS3)cc2C1=O
    109, -94, 113, 97
54) O=C(OCc1ccccc1)C1CCN(S(=O)(=O)c2cccs2)CC1
    ., 6, 82, 101
55) C=CCNC(=O)CSc1nc2ccccc2[nH]1
    ., 1, 92, 94
56) CCC1CCCCN1Cc1c(O)ccc2c(=O)c(Oc3ccccc3Cl)c(C(F)(F)F)oc12 (stereo not given)
    111, -32, 105, 82
57) Cc1ccc(S(=O)(=O)C(CNC(=O)COc2ccc(Cl)cc2)c2ccco2)cc1 (stereo not given)
    99, ., 110, 102
58) COC(=O)c1ccc2c(c1)nc1n2CCCC1
    105, -30, 99, 81
59) Nc1ccc(C(O)(C(F)(F)F)C(F)(F)F)cc1
    ., -23, 108, 91
60) N#CCCN(Cc1cccs1)S(=O)(=O)c1ccccc1
    103, -15, 102, 80
61) CC(=O)c1c(C)n(-c2cccc(Cl)c2)c2ccc(OC(=O)c3ccccc3)cc12
    107, -1, 99, 105
62) CC(C)CC(NC(=O)C1CCCCC1)C(=O)Nc1ccccc1F (stereo not given)
    93, -21, 95, 87
63) Cc1ccc(N2C(=O)CC(Sc3nc(C4CC4)ccc3C#N)C2=O)cc1 (stereo not given)
    105, -74, ., .
64) O=c1ccnc(SCc2ccccc2Cl)[nH]1
    97&103, -19, 93&92, 71&87
65) O=C(Cn1cnc(S(=O)(=O)N2CCCC2)c1)NC1CCN(Cc2ccccc2)CC1
    103, ., 97, 95
66) CCCCOc1ccccc1C1CC(=O)Nc2cc(OC)c(OC)cc21 (stereo not given)
    104, -6, 103, 93
67) COc1ccc(/C=C/c2nc(C#N)c(NCc3ccc(F)cc3)o2)cc1OC
    101, 6, 102, 91
68) O=C(CSc1nnc(-c2cccc(F)c2)o1)N1c2ccccc2Sc2ccccc21
    100, 7, 76, 91
69) CC(NC(=O)COc1ccccc1)C(=O)N1CCN(S(=O)(=O)c2cccs2)CC1 (stereo not given)
    ., -26, 114, 92
70) COC(=O)c1ccc(NC(=O)C(=O)NCCc2csc(-c3ccc(F)cc3)n2)cc1
    109, ., 101, 100
71) Cc1cc(C)n(CCCNC(=O)/C=C/c2c(Cl)nc3ccccn23)n1
    ., -52, 84, 70
72) O=C1CC(c2ccccc2)Sc2ccccc2N1Cc1ccc(F)cc1 (stereo not given)
    104, -33, 105, 69
73) COc1ccccc1NC(=O)Nc1cc(C(C)(C)C)nn1C
    105, -2, 104, 97
74) C=CCNC(=S)NNc1nc(NCC)nc(NCC)n1
    110, -8, 100, 95
75) O=C(Nc1ccc(F)cc1)N1CCC(N2CCN(Cc3ccc(F)cc3)C(=O)C2=O)CC1
    101, -26, ., .

3 entries out of the list, ordered by length of the SMILES, rising:
Fields – GIV Gai3 FP, HCMV UL50-53 inh, Sa growth inh, Sa growth inh second temp
64) O=c1ccnc(SCc2ccccc2Cl)[nH]1
    97&103, -19, 93&92, 71&87
67) COc1ccc(/C=C/c2nc(C#N)c(NCc3ccc(F)cc3)o2)cc1OC
    101, 6, 102, 91
75) O=C(Nc1ccc(F)cc1)N1CCC(N2CCN(Cc3ccc(F)cc3)C(=O)C2=O)CC1
    101, -26, ., .

Next structures follow.
Fields – GIV Gai3 FP, HCMV UL50-53 inh, Sa growth inh, Sa growth inh second temp
76) Clc1ccc(-c2ncnn2-c2ccc(Br)cc2)cc1
    101, ., 110, 97
77) CCOc1cc(CNCc2cccnc2)cc(Cl)c1OCC(N)=O
    94, -10, 80, 85
78) COc1cccc(-c2noc(-c3ccc(Br)o3)n2)c1
    104, ., 89, 85
79) O=C(Cn1cc(C(=O)C2CC2)c2ccccc21)NCc1ccc2c(c1)OCO2
    99, -8, 91, 78
80) CC(Sc1ccc(Br)c2cccc(C(=O)O)c12)C(=O)O (stereo not given)
    100, ., 108, 92
81) c1csc(-c2nc(-c3cc4ccccc4o3)cs2)c1
    101, -12, 105, 92
82) O=C(CCn1nc(-c2ccc(Cl)cc2)ccc1=O)NC1CCCCC1
    105, -25, 85, 94
83) CCOCCCNC(=O)C(c1ccc(OC)cc1)N(Cc1ccc2c(c1)OCO2)C(=O)c1ccccc1O (stereo not given)
    99, -8, 91, 94
84) Cc1ccc(-[n+]2cc(Cl)on2)cc1
    ., -127, 106, 80
85) COc1ccc(CCN(C)C(=O)c2cncc(Br)c2)cc1OC
    ., 13, 108, 97
86) CCN(C(=O)Cn1cnc2ccccc21)c1ccccc1
    97, -42, 99, 94
87) O=C(Cc1ccc(NC2=NC3CS(=O)(=O)CC3S2)cc1)Nc1ccc(F)cc1 (stereo not given)
    104, -31, ., .
88) C=CCn1c(CCn2c3ccccc3c3ccccc32)n[nH]c1=S
    107, ., 95, 95
89) CCCOc1ccc(N2CC(C(=O)Nc3ccc4c(c3)OCO4)CC2=O)cc1 (stereo not given)
    107, 0, 106, 96
90) C=CCn1c(=O)c2ccccc2n2c(SC3CCOC3=O)nnc12 (stereo not given)
    ., -8, 103, 97
91) c1cc(C23CC4CC(CC(C4)C2)C3)ccc1CN1CCOCC1
    ., -13, 100, 85
92) CCOC(=O)c1ccc(NC(=O)c2cc(C)nn2-c2ccccc2)cc1
    99, -13, 75, 74
93) O=C(COc1ncnc2ccccc12)NCCC1=CCCCC1
    ., 17, 83, 95
94) O=C(Oc1ccc2c(c1)oc(=O)c1ccccc12)c1ccco1
    106, -4, 93, 86
95) Cc1ccc(NCc2cc3cc4c(cc3n(CC(=O)Nc3ccc(F)cc3F)c2=O)OCCO4)cc1
    101, ., 67, 84
96) Cc1ccc(-c2nc3ncccn3c2Nc2ccc3c(c2)OCCO3)cc1
    107, -14, 103, 91
97) Cc1cc(C)cc(NS(=O)(=O)c2ccc3c(c2)OCC(C(=O)N2CCCC2)O3)c1 (stereo not given)
    100, ., 99, 78
98) COc1cc(/C=C/C(=O)NCCn2ccc3ccccc32)cc(OC)c1OC
    100, ., 99, 74
99) CN(C)C(CNC(=O)c1ccc(S(=O)(=O)NCc2ccco2)cc1)c1ccccc1 (stereo not given)
    ., -6, 106, 90
100) CNC(=O)c1cc(C#N)c(SC)s1
    104, -14, 102, 97
101) Cc1cccc(N2CCN(C(=O)COCc3cc(-c4ccc5c(c4)OCO5)on3)CC2)c1C
    105, ., 122, 99
